RecA intein inh – Mtb RecA intein splicing inhibitors, primary screen, biochemical, fluorescence, HTS | Protein RecA (Mycobacterium tuberculosis (strain ATCC 25618 / H37Rv)), P9WHJ3 | cell-free RecA intein splicing | inhibition, %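 (about 9 µM by stock and volumes)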 | 290,000 compounds, 0.75% hits | AID 2221, 2009; in the data active = inhibition above about 30%; inconclusive = no clear call, values can overlap the other calls;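 note: 0% = vehicle wells and 100% = reference inhibitor control wells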
Target sequence (P9WHJ3 whole entry, looked up): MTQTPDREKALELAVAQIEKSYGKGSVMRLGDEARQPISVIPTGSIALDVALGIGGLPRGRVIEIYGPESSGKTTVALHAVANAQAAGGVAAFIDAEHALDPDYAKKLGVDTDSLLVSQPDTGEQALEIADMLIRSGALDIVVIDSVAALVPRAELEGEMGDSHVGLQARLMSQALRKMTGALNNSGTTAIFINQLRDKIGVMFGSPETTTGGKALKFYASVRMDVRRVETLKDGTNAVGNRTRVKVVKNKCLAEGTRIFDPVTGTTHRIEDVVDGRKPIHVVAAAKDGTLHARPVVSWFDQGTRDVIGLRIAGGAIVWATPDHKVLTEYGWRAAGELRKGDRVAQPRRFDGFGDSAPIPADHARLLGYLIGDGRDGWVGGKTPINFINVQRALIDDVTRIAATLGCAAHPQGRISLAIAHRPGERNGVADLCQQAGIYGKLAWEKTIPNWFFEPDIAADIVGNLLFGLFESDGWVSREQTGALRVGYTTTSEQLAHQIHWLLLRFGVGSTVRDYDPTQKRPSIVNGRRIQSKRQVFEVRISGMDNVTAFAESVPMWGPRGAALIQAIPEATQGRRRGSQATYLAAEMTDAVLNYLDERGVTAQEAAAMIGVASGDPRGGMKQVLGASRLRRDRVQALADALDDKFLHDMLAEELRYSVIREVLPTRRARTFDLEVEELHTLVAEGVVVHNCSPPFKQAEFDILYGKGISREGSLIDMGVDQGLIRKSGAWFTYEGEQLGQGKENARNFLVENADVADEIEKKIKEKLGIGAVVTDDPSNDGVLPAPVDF
Mtb betalactam – beta-lactam sensitization of Mtb H37Rv, H37Rv. M. tuberculosis H37Rv growth with meropenem, percent inhibition; hits of this screen are not shown here. inhibition, % at 25 µM. 330,000 compounds, 0.27% hits. AID 434955, 2010;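 active = about 74% or more and at least 40 points above the plate without the antibiotic, then above 30% in a dose series; inconclusive = first-round hits that could not be retested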;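 note: growth measured after seven days incubation then overnight dye step; 0% = bacteria only wells and 100% = bacteria with antibiotic; twin plates without the antibiotic show which effects depend on it; some results filed as inactive read as strong as hits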
Arbovirus inh – antivirals against arbovirus infection, primary screen, cell-based, full library, 10K replicate subset. arbovirus infection cell-based antiviral screen. inhibition, % at 10 µM. 200,000 compounds, 0.37% hits. AID 1251, 2008;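 active = inhibition from about 30%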;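 note: bluetongue infection of BSR cells; cell survival read as ATP light after 72 h; 0% = infected wells without compound and 100% = uninfected wells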
Mtb H37Rv – M. tuberculosis H37Rv growth inhibitors, H37Rv strain (AID 1626). M. tuberculosis H37Rv growth inhibition; higher % means a stronger effect. 220,000 compounds, 0.95% hits. one-dose inhibition, % at 10 µM; IC50 in µM for titrated hits;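 active = confirmed in a dose series; inconclusive = inhibition above 80% but not taken into the dose series; inactive = below 80% or under 30% at every dose of the series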;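 note: bacteria incubated seven days before Alamar blue readout; 0% = bacteria only wells and 100% = bacteria with antibiotic wells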
YopH inh – YopH tyrosine phosphatase inhibitors, primary screen, biochemical, fluorescence Ex485/Em525. inhibition, %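 (about 10 µM by stock and volumes)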. YopH tyrosine phosphatase [Yersinia enterocolitica]. 140,000 compounds, 0.16% hits;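 active = inhibition of 50% or more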;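 note: controls were vehicle for no effect and minimum signal wells for full effect; inactives centre near -20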
Arbovirus inh repeat – also measured in Arbovirus inh; calls as there; inhibition, %; measured here: 10K subset replicate screen; many hits read low in the repeat;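 first of two repeat runs on a subset; 0% = infected and 100% = uninfected wells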
The depositor's hits bear a star; ? = inconclusive; . = not tested or not shown. This is a subset, so the mix of outcomes need not match the whole.

SMILES | RecA intein inh | Mtb betalactam | Arbovirus inh | Mtb H37Rv | YopH inh | others
CNC(=O)Nc1cc(C)nn1C | 1.7 | 1 | 0 | 4% | .
O=[N+]([O-])c1c(NCCO)cc(Sc2nc3ccccc3s2)c2nonc12 | 94* | 96 | -33 | ? | -17
Cc1ccc(/C(N)=N/OC(=O)/C=C/c2ccccc2)cc1 | 1.6 | 54 | 2 | -2% | -17
Cc1ccccc1CSCCC(=O)NCCc1ccccc1 | 3.1 | -5 | 6 | -3% | .
Cn1c(=O)[nH]c(=O)c2c1nc(SCC(=O)O)n2CCOc1ccccc1 | -1.4 | -3 | . | . | .
CCCCNC(=O)C1=C(N)C(C(=O)Nc2ccc(C)c(S(=O)(=O)N3CCCCC3)c2)SC1=Nc1ccc(C)cc1C (configuration not stated) | -5.4 | -1 | -19 | . | 8
CCn1c(=O)cc(OCC(=O)NCCCN2CCN(c3cccc(Cl)c3)CC2)c2ccccc21 | 2.6 | 56 | -21 | 1% | -10
CC1CCCC(C)N1C(=O)CSc1nc(N)c(-c2ccccc2)c(=O)[nH]1 (configuration not stated) | -1.9 | -2 | -1 | -11% | -15
Cc1ccc(O)c(N=CC2=C(O)c3ccccc3C2=O)c1 | 87* | 22 | -1 | 2% | -21 | Arbovirus inh repeat=-13
O=C1c2ccccc2C(=O)N1CCC(c1ccccc1)c1ccco1 (configuration not stated) | 12 | 10 | 4 | -17% | -10
FC(F)(F)c1ccccc1/C=N/N1CCN(Cc2ccccc2)CC1 | 7.9 | -5 | 1 | 5% | -39
COCCN(C(=O)COC(=O)c1cc2c(s1)CCCC2)c1c(N)n(Cc2ccccc2)c(=O)[nH]c1=O | -0.9 | -6 | . | . | .
CC(=O)NC1=NN(C(C)=O)C(c2cccc([N+](=O)[O-])c2)S1 (configuration not stated) | . | -3 | 3 | -1% | -7
COC(=O)C1(C(F)(F)F)N=C(N(C)C)OC(N(C)C)=N1 | 0.4 | -4 | 3 | 1% | -48
CC(C)n1c2ccccc2c2nnc(SCC(=O)OCN3C(=O)c4ccccc4C3=O)nc21 | 2.7 | 6 | -7 | -4% | -7
NC(=O)C1CCN(C(=O)c2ccc(CS(=O)(=O)c3c(Cl)cccc3Cl)o2)CC1 | 1.3 | 2 | 8 | -9% | -46 | Arbovirus inh repeat=-3
COc1ccccc1C(=O)NCCSCc1c(F)cccc1Cl | 2.5 | -1 | . | . | .
O=C(NP(=O)(N1CCOCC1)N1CCOCC1)C1=C(N2CCOCC2)/C(=C\c2ccccc2)CC1 | -0.1 | 9 | 6 | 7% | .
COc1ccccc1C(=O)C1CCCN(C(=O)CCn2cnnn2)C1 (configuration not stated) | 2.2 | -7 | . | -8% | .
CCN(CC)C(=O)Oc1cc2c(-c3cc4cccc(OC)c4o3)cc(=O)oc2cc1C | -2.9 | 10 | . | . | .
CCOC(=O)C1CCCN(CC(O)COc2ccc(OC)cc2C(C)(C)C)C1 (configuration not stated) | 1.3 | 2 | 4 | -7% | -37
CCCOC(=O)C(C)Sc1n[nH]c(=O)[nH]c1=O (configuration not stated) | -0.1 | 7 | -2 | 0% | .
CC1CC(C)(C)CC2(C1)NC(=O)N(CC(=O)Nc1nccs1)C2=O (configuration not stated) | -1.2 | -12 | . | . | .
CC(=O)c1ccc(C(=O)Nc2ccc3c(c2)C(=O)NC3=O)cc1 | 0.0 | 1 | . | . | .
Cc1c(-c2n[nH]c(=S)n2-c2ccc(Br)cc2)nnn1-c1ccc(Cl)cc1 | -1.5 | . | -1 | 4% | .
CCc1nnc(NC(=O)/C=C/c2ccc(C)o2)s1 | -1.9 | -2 | 7 | -3% | -9
Fc1ccc(NC(=S)N2CCN(c3ccccn3)CC2)cc1Cl | 3.6 | -2 | . | . | .
Cc1cc2oc(C(=O)Nc3ccc(S(=O)(=O)Nc4nccs4)cc3)cc(=O)c2cc1Cl | -0.9 | 0 | -5 | 9% | -15
CCn1c(SCc2nc3cc(OC)c(OC)cc3c(=O)[nH]2)nnc1-c1ccncc1 | -1.3 | 0 | 5 | -5% | -32
Nc1cccc(-c2nnc3n2CCCCC3)c1 | -0.9 | 1 | -3 | 3% | .
CCOc1cc(C(=O)Nc2ccc(S(=O)(=O)Nc3cc(C)on3)cc2)cc(OCC)c1OCC | 4.8 | 58 | 3 | . | -43
Cn1c(=O)c2c(nc(CN3CCN(c4ccccc4)CC3)n2CCCc2ccccc2)n(C)c1=O | -2.0 | 0 | . | 8% | -21
CCCC(=O)Nc1c2c(nn1-c1ccc(F)cc1)CS(=O)(=O)C2 | 0.2 | 0 | . | . | .
CCc1ccc(NC(=O)c2cc(C)no2)cc1 | -1.4 | 39 | . | . | .
C=CCn1c(SCc2cc(C(=O)OC)c(C)o2)nnc1-c1ccncc1 | -0.4 | -2 | 8 | -4% | -9
N#C/C(=C/c1ccc(-c2cc(C(=O)O)cc(C(=O)O)c2)o1)c1nc2ccccc2s1 | -25 | -3 | 16 | 0% | .

An excerpt from above in order of molecular weight, largest number first:
SMILES | RecA intein inh | Mtb betalactam | Arbovirus inh | Mtb H37Rv | YopH inh | others
CCCCNC(=O)C1=C(N)C(C(=O)Nc2ccc(C)c(S(=O)(=O)N3CCCCC3)c2)SC1=Nc1ccc(C)cc1C (configuration not stated) | -5.4 | -1 | -19 | . | 8
Cn1c(=O)c2c(nc(CN3CCN(c4ccccc4)CC3)n2CCCc2ccccc2)n(C)c1=O | -2.0 | 0 | . | 8% | -21
CC(C)n1c2ccccc2c2nnc(SCC(=O)OCN3C(=O)c4ccccc4C3=O)nc21 | 2.7 | 6 | -7 | -4% | -7
CCn1c(SCc2nc3cc(OC)c(OC)cc3c(=O)[nH]2)nnc1-c1ccncc1 | -1.3 | 0 | 5 | -5% | -32
N#C/C(=C/c1ccc(-c2cc(C(=O)O)cc(C(=O)O)c2)o1)c1nc2ccccc2s1 | -25 | -3 | 16 | 0% | .
CCOC(=O)C1CCCN(CC(O)COc2ccc(OC)cc2C(C)(C)C)C1 (configuration not stated) | 1.3 | 2 | 4 | -7% | -37
O=[N+]([O-])c1c(NCCO)cc(Sc2nc3ccccc3s2)c2nonc12 | 94* | 96 | -33 | ? | -17
CC1CCCC(C)N1C(=O)CSc1nc(N)c(-c2ccccc2)c(=O)[nH]1 (configuration not stated) | -1.9 | -2 | -1 | -11% | -15
COc1ccccc1C(=O)NCCSCc1c(F)cccc1Cl | 2.5 | -1 | . | . | .
Fc1ccc(NC(=S)N2CCN(c3ccccn3)CC2)cc1Cl | 3.6 | -2 | . | . | .
FC(F)(F)c1ccccc1/C=N/N1CCN(Cc2ccccc2)CC1 | 7.9 | -5 | 1 | 5% | -39
CC(=O)c1ccc(C(=O)Nc2ccc3c(c2)C(=O)NC3=O)cc1 | 0.0 | 1 | . | . | .
COC(=O)C1(C(F)(F)F)N=C(N(C)C)OC(N(C)C)=N1 | 0.4 | -4 | 3 | 1% | -48
Cc1ccc(O)c(N=CC2=C(O)c3ccccc3C2=O)c1 | 87* | 22 | -1 | 2% | -21 | Arbovirus inh repeat=-13
CCc1nnc(NC(=O)/C=C/c2ccc(C)o2)s1 | -1.9 | -2 | 7 | -3% | -9
CCCOC(=O)C(C)Sc1n[nH]c(=O)[nH]c1=O (configuration not stated) | -0.1 | 7 | -2 | 0% | .
CCc1ccc(NC(=O)c2cc(C)no2)cc1 | -1.4 | 39 | . | . | .

Next compounds.
SMILES | RecA intein inh | Mtb betalactam | Arbovirus inh | Mtb H37Rv | YopH inh | others
CC(=O)c1cccc(NC(=O)CCc2nc3sc4c(c3c(=O)[nH]2)CCCC4)c1 | -0.9 | 0 | . | . | .
CCNC(=O)n1nccc1C(C)Oc1ccc(Cl)cc1 (configuration not stated) | 3.8 | 10 | 7 | 2% | -14
CCCNC(=O)Cc1ccsc1 | 0.6 | -2 | 0 | -7% | -8
COCCNC(=O)CSc1ccc(C)cc1 | 1.4 | -4 | -8 | -11% | -36
O=C(CN(C(=O)CCC(=O)Nc1nccs1)c1cccc(F)c1)NCc1ccccc1 | 1.9 | 1 | . | . | .
CC(C)NC(=O)c1ccc(CSCc2ccccc2Cl)o1 | 3.0 | -4 | . | . | .
CC(C(=O)NC1CCCCC1)N(Cc1ccccc1)C(=O)c1snc(C(N)=O)c1N (configuration not stated) | -1.5 | 6 | . | . | .
O=C(O)CCC(=O)N1CCN(c2ccccn2)CC1 | -0.6 | -17 | 6 | . | -30
CC(C)c1nnc(NC(=O)CCC(=O)NCc2ccc3c(c2)OCO3)s1 | -2.8 | -11 | 5 | -8% | -13
CS(=O)(=O)N(CC(=O)N1CCc2ccccc2C1)c1ccc(Cl)cc1F | -0.4 | -4 | . | . | .
Cc1cc(C)cc(NC(=O)CN2CCc3ccccc3C2)c1 | 3.9 | 2 | 0 | 9% | -4
COc1ccc(N(C(=O)C(C)C)S(=O)(=O)c2cccc3cccnc23)cc1 | -0.8 | 3 | -2 | 7% | -29
COc1ccccc1NC(=O)Cn1nnc(-c2ccccc2NC(=O)c2ccco2)n1 | 1.0 | -10 | -2 | -11% | -6
FC(F)(F)c1ccccc1CN1CCN(C2CCCCCC2)CC1 | . | 44 | 10 | 2% | -15
CCOc1cccc(-c2nn3c(-c4cc(C)[nH]n4)nnc3s2)c1 | -1.0 | -5 | -10 | 1% | -32
O=C1c2ccccc2S(=O)(=O)c2cc(C(=O)N3CCC(N4CCCC4)CC3)ccc21 | -3.6 | -5 | . | -3% | .
Cc1ccc[n+](CC(=O)Nc2ccc(N(C)C)cc2)c1 | -2.5 | -2 | . | . | .
COc1ccc(-n2c(=O)[nH]c3ccccc3c2=O)cc1 | 0.6 | 3 | 6 | -1% | -19
Cc1[nH]nc2c1C1(CCOC1C)C(C#N)=C(N)O2 (configuration not stated) | -1.1 | 0 | -9 | -11% | -4
COc1ccc(NC(=O)CSc2nc3ccc(OC)cc3[nH]2)cc1 | -1.0 | 58 | . | 46% | .
Cc1c(NC(=O)c2ccc(COc3ccc4ccccc4c3)o2)c(=O)n(-c2ccccc2)n1C | 4.7 | 8 | 1 | -7% | -9
CSc1ccc(S(=O)(=O)NCC(=O)OCC(=O)NCc2ccco2)cc1[N+](=O)[O-] | -0.7 | 1 | . | . | .
O=C(CN1CCC(NC(=O)c2ccccc2)CC1)NCc1ccccc1F | -2.2 | -13 | -5 | -12% | -21
COc1ccc(CCNC(=O)c2ccc(-c3ccc([N+](=O)[O-])cc3Cl)o2)cc1OC | -1.9 | 9 | 19 | 23% | -13
COC(=O)Cn1c2ccc(F)cc2c2nc(C)sc21 | 1.8 | 88 | 6 | 10% | -19
CNC(=O)c1sc(-c2ccccn2)nc1C | 0.1 | 6 | -2 | 11% | .
O=C(Cc1ccccc1)Nc1cc2c(cc1Cl)OCCCO2 | -0.5 | 1 | . | . | .
O=C(CSc1nnc(COc2ccccc2)o1)N1CCCCC1 | -4.0 | -5 | . | . | .
Cc1ccc(S(=O)(=O)N(CCO)c2cc3c(s2)CCCC3)cc1 | 0.7 | -5 | 17 | 0% | 5
O=C(NNc1ccnc2cc(Cl)ccc12)C1CCCCC1 | 0.2 | 1 | 5 | 7% | .
CC1=CN2C(=N)/C(=C\c3cn(CCCOc4ccccc4)c4ccccc34)C(=O)N=C2S1 | -4.5 | 2 | -4 | 5% | -37
O=C(NC1=NCCS1)c1cccs1 | 18 | -7 | 2 | -1% | -44
COc1ccc(/C=C(/NC(=O)c2ccco2)C(=O)N2CCc3ccccc32)cc1OC | -0.6 | -11 | . | 7% | .
CC(=O)C1=C(O)CCC1=N | 0.2 | -11 | 7 | 3% | -43
O=C(O)c1ccc(N2C(=O)CC(N3CCC(c4nc5ccccc5[nH]4)CC3)C2=O)cc1 (configuration not stated) | . | -7 | 8 | 8% | .
Cc1ccccc1C(=O)N1CCN=C1SCc1ccc([N+](=O)[O-])cc1 | 2.9 | 3 | -6 | -4% | .
O=C(Nc1ccc(F)cc1)Nc1ccc2c(c1)CCC2 | 0.7 | -14 | . | . | .
O=C(O)C1CCCN(S(=O)(=O)c2cccs2)C1 (configuration not stated) | 0.2 | 2 | 5 | -2% | -8
COc1ccc(C2CC(=O)c3cnc(N4CCc5ccccc54)nc3C2)cc1OC (configuration not stated) | . | 10 | . | 2% | .
COc1ccc(C(=O)COC(=O)c2ccco2)cc1 | 0.3 | 5 | 8 | 3% | -18
C(=C\c1nc(N2CCCCCC2)c2ccccc2n1)/c1ccccc1 | 12 | 99 | -38 | 8.4µM* | -44
O=C(NC(Cc1c[nH]c2ccccc12)C(=O)O)c1ccc2c(c1)OCO2 (configuration not stated) | -2.8 | 8 | . | . | .
